HSV replic up = enhancers of HSV replication in host cells, fold increase, host cell viability | 220,000 compounds, 0.005% hits | HSV replication augmentation in cells | maximum fold increase | AID 1956, 2009;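 active = peak rise of 1.5-fold or more in the series; tested in PC3 cells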;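 note: first round at 10 µM; read as green reporter fluorescence; hits show the peak of a series up to 25 µM; 1 = signal of infected wells without compound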
RGS16-Gao HTS = modulators of RGS16 binding to Galphao, primary screen, biochemical, human proteins, multiplexed bead flow cytometry; bead-based flow cytometry RGS16-Galphao binding, fluorescence; actives lie on both sides; AID 1441, 2008; 220,000 compounds, 0.38% hits; binding response (% of control), % at 10 µM;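 active = below 25% or above 175%, edge rows of some plates excepted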;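 note: Galphao activated by GDP with aluminum fluoride before binding; 100% = wells without compound and 0% = beads without RGS; some results beyond the cut were filed as inactive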
Target sequence (O15492 whole entry, looked up): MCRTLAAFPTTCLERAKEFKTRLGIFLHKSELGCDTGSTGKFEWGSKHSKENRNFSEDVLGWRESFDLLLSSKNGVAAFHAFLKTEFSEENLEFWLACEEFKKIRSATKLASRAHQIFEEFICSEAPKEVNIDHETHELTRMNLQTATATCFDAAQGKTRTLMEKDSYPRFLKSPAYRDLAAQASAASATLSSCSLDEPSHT
Target sequence (P09471 whole entry, looked up): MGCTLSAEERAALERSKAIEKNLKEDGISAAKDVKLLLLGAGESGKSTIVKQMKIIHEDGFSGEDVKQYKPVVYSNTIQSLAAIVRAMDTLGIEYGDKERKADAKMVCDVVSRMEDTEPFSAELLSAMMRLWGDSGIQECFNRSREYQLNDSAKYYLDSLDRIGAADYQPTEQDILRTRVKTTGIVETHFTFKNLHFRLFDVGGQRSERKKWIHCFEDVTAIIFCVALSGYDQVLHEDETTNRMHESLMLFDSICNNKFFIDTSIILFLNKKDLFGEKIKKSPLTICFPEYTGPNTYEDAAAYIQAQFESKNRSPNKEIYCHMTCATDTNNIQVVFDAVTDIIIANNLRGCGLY
HSV replic up primary fold = further read-out of HSV replic up, marked with its call; fold increase; compound at 10 µM; measured here: primary screen fold increase 10 uM; tested in PC3 cells;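 GFP signal in the first replicate; 1 = infected wells without compound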
Starred values were filed as active, the others as inactive; i = inactive; / = not tested or not shown. The list is partial; the hit share may differ from the screen's.

SMILES | RGS16-Gao HTS | HSV replic up primary fold | HSV replic up
CCN(C(C)=O)c1cccc(-c2ccnc3c(C#N)cnn23)c1 | 98.7 | / | /
O=C1NC(=O)N(Cc2ccccc2)C(=O)/C1=C/C=C/c1ccco1 | 96.3 | / | /
NC(=O)CS(=O)C(c1ccccc1)c1ccccc1 (stereo unspecified) | 104.3 | / | /
COc1cccc2c1O[C@H]1C(=O)CC[C@H]3CN(C)CCC231 (stereo partly specified) | / | 1.03 | i
CCCCOC(=O)c1ccc(NC(=O)c2c(O)[nH]c(=O)[nH]c2=O)cc1 | / | 0.91 | i
COc1ccc(C[C@H]2NC[C@H](O)[C@H]2OC(C)=O)cc1 | / | 0.49 | i
CN1CCc2cc(O)cc3c2[C@H]1Cc1ccc(O)c(O)c1-3 | / | 0.84 | i
COC(=O)C1=C(c2ccccc2)C[C@@H]2CC[C@H]1N2C(=O)NC1CCCCC1 | / | 1.18 | i
C=C(C)[C@@]12OC3(c4ccccc4)O[C@@H]1C1[C@@H]4O[C@]4(CO)[C@@H](O)[C@]4(O)C(=O)C(C)=C[C@H]4[C@@]1(O3)[C@H](C)[C@H]2OC(=O)/C=C/C=C/c1ccccc1 (stereo partly specified) | / | 0.7 | i
CCN1C[C@@]2(COC)C3[C@@H](OC)[C@H]4[C@@H]1[C@@]3(C1C[C@H]3[C@H](O)C1[C@]4(O)C[C@H]3OC)[C@@H](OC)C[C@H]2O (stereo partly specified) | / | 1.06 | i
CN=C1CN(O)C(c2ccccc2)=c2cc(Cl)ccc2=N1 | / | 0.79 | i
COc1nc(C)nc(NC(=O)NS(=O)(=O)c2ccccc2Cl)n1 | / | 1.08 | i
CC[C@H]1CN2CC[C@@]3(C(=O)Nc4ccccc43)[C@@H]2C[C@@H]1/C(=C\OC)C(=O)OC | / | 0.71 | i
COC(=O)C1=C(c2cccc(OC)c2OC)C[C@@H]2CC[C@H]1N2C(=O)NCc1ccco1 | / | 0.9 | i
CC[C@H]1CN(C)CCc2c([nH]c3ccccc23)C(=O)C[C@@H]1/C(=C\OC)C(=O)OC | / | 0.94 | i
COC(=O)C1=C(c2ccccc2)C[C@@H]2CC[C@H]1N2C(=O)N1CCCCC1 | / | 0.93 | i
CCN1C[C@@]2(COC)C3[C@@H](OC)[C@H]4[C@@H]1[C@@]3(C1C[C@@]3(O)[C@H](OC(=O)c5ccccc5)C1[C@]4(OC(C)=O)[C@@H](O)[C@H]3OC)[C@@H](OC)C[C@H]2O (stereo partly specified) | / | 1 | i
O=C(O)C(Cl)(Cl)Cl | / | 0.83 | i
COC(=O)C1=C(c2cccc(OC)c2OC)C[C@@H]2CC[C@H]1N2C(=O)N1CCOCC1 | / | 0.86 | i
COC(=O)C1=C(c2ccccc2)C[C@@H]2CC[C@H]1N2C(=O)NCCCOC(C)C | / | 0.79 | i

15 compounds out of the list, sorted by molar mass, lowest first.
SMILES | RGS16-Gao HTS | HSV replic up primary fold | HSV replic up
O=C(O)C(Cl)(Cl)Cl | / | 0.83 | i
COc1ccc(C[C@H]2NC[C@H](O)[C@H]2OC(C)=O)cc1 | / | 0.49 | i
NC(=O)CS(=O)C(c1ccccc1)c1ccccc1 (stereo unspecified) | 104.3 | / | /
CN1CCc2cc(O)cc3c2[C@H]1Cc1ccc(O)c(O)c1-3 | / | 0.84 | i
O=C1NC(=O)N(Cc2ccccc2)C(=O)/C1=C/C=C/c1ccco1 | 96.3 | / | /
CCCCOC(=O)c1ccc(NC(=O)c2c(O)[nH]c(=O)[nH]c2=O)cc1 | / | 0.91 | i
COC(=O)C1=C(c2ccccc2)C[C@@H]2CC[C@H]1N2C(=O)N1CCCCC1 | / | 0.93 | i
COc1nc(C)nc(NC(=O)NS(=O)(=O)c2ccccc2Cl)n1 | / | 1.08 | i
COC(=O)C1=C(c2ccccc2)C[C@@H]2CC[C@H]1N2C(=O)NC1CCCCC1 | / | 1.18 | i
CC[C@H]1CN2CC[C@@]3(C(=O)Nc4ccccc43)[C@@H]2C[C@@H]1/C(=C\OC)C(=O)OC | / | 0.71 | i
COC(=O)C1=C(c2ccccc2)C[C@@H]2CC[C@H]1N2C(=O)NCCCOC(C)C | / | 0.79 | i
COC(=O)C1=C(c2cccc(OC)c2OC)C[C@@H]2CC[C@H]1N2C(=O)NCc1ccco1 | / | 0.9 | i
CCN1C[C@@]2(COC)C3[C@@H](OC)[C@H]4[C@@H]1[C@@]3(C1C[C@H]3[C@H](O)C1[C@]4(O)C[C@H]3OC)[C@@H](OC)C[C@H]2O (stereo partly specified) | / | 1.06 | i
CCN1C[C@@]2(COC)C3[C@@H](OC)[C@H]4[C@@H]1[C@@]3(C1C[C@@]3(O)[C@H](OC(=O)c5ccccc5)C1[C@]4(OC(C)=O)[C@@H](O)[C@H]3OC)[C@@H](OC)C[C@H]2O (stereo partly specified) | / | 1 | i
C=C(C)[C@@]12OC3(c4ccccc4)O[C@@H]1C1[C@@H]4O[C@]4(CO)[C@@H](O)[C@]4(O)C(=O)C(C)=C[C@H]4[C@@]1(O3)[C@H](C)[C@H]2OC(=O)/C=C/C=C/c1ccccc1 (stereo partly specified) | / | 0.7 | i

More records
SMILES | RGS16-Gao HTS | HSV replic up primary fold | HSV replic up
COC(=O)C1=C(c2ccccc2)C[C@@H]2CC[C@H]1N2C(=O)NCc1ccc(F)cc1 | / | 1.28 | i
C=C(C)[C@H]1CN[C@H](C(=O)O)[C@H]1CC(=O)O | / | 0.81 | i
COC(=O)C1=C(c2cc3ccccc3s2)C[C@@H]2CC[C@H]1N2C(=O)N1CCOCC1 | / | 0.58 | i
COC(=O)C1=C(c2cc3ccccc3o2)C[C@@H]2CC[C@H]1N2C(=O)N1CCOCC1 | / | 0.59 | i
COC(=O)C1=C(c2cc3ccccc3s2)C[C@@H]2CC[C@H]1N2C(=O)NC1CCCCC1 | / | 1.01 | i
COC(=O)C1=CO[C@@H](C)[C@H]2CN3CC[C@]4(C(=O)Nc5ccccc54)[C@@H]3C[C@H]12 | / | 0.92 | i
COC(=O)C1=C(c2cccc(OC)c2OC)C[C@@H]2CC[C@H]1N2C(=O)NC1CCCCC1 | / | 0.89 | i
COC(=O)C1=C(c2cc3ccccc3s2)C[C@@H]2CC[C@H]1N2C(=O)NCc1cccc2ccccc12 | / | 1.13 | i
C/C=C1/CN2[C@@H]3C4CO[C@@H]3c3c([nH]c5cc(OC)ccc35)[C@@H]2CC14 (stereo partly specified) | / | 0.99 | i
C=C1C(=O)[C@@]23C[C@H]4[C@@H]5[C@@]6(C)CCC[C@@]57[C@@H]2[C@@H](O)[C@@H]1C[C@H]3[C@H]7N4C6 | / | 0.65 | i
COC(=O)C1=C(c2ccccc2)C[C@@H]2CC[C@H]1N2C(=O)N1CCCC1 | / | 1.26 | i
CC[C@@H]1C=CC=CC[C@H](C)[C@@H](O)[C@@H](C)C(=O)[C@H](C)[C@@H](O)[C@H](C)C(=O)[C@H](C)[C@@H](O)[C@H](C)C=CC(=O)O[C@H]2[C@@H](C)[C@@H](CC1)O[C@@]1(CC[C@@H](C)[C@@H](C[C@H](C)O)O1)[C@@H]2C | / | 0.84 | i
COC(=O)C1=C(c2cc3ccccc3o2)C[C@@H]2CC[C@H]1N2C(=O)NC(C)C | / | 0.89 | i
COC(=O)C1=C(c2ccccc2)C[C@@H]2CC[C@H]1N2C(=O)NC(C)C | / | 0.94 | i
NC(=O)OCCCc1ccccc1 | / | 0.87 | i
COC(=O)C1=C(c2ccc(S(C)(=O)=O)cc2)C[C@@H]2CC[C@H]1N2C(=O)NCCO | / | 0.68 | i
COC(=O)C1=C(c2ccccc2)C[C@@H]2CC[C@H]1N2C(=O)NCC1CC1 | / | 1.13 | i
Cn1ncnc2c(=O)n(C)c(=O)nc1-2 | / | 0.48 | i
COC(=O)C1=C(c2cc3ccccc3s2)C[C@@H]2CC[C@H]1N2C(=O)NCC1CC1 | / | 0.94 | i
CCC1=CCN(CCc2c(C)[nH]c3ccccc23)CC1 | / | 1 | i
COC(=O)[C@@H]1C[C@]2(C(=O)O)c3ccccc3N(OOSc3ccccc3)[C@@H]2N1C(=O)OC | / | 0.93 | i
COC(=O)C1=C(c2ccc(S(C)(=O)=O)cc2)C[C@@H]2CC[C@H]1N2C(=O)NCc1ccco1 | / | 0.73 | i
CC1=C(C/C(C)=C/c2ccccc2)/C(=C/CO)[C@@H]2OC(=O)O[C@]2(C)C12CC2 | / | 0.84 | i
COC(=O)C1=C(c2cccc(OC)c2OC)C[C@@H]2CC[C@H]1N2C(=O)N1CCC(C)CC1 | / | 0.78 | i
COC/C=C1\CN2C3C[C@@H]1[C@H]1COC4=Nc5cc(OC)c(OC)c(OC)c5[C@@]43C[C@@H]12 | / | 0.87 | i
CC1(C)CC[C@]2(C)CC[C@]3(C)C4C[C@@H]5OO[C@@]6(O5)C(CCCC6(C)C)[C@]4(C)CC[C@@]3(C)C2C1 (stereo partly specified) | / | 1.01 | i
CCOC(=O)c1cccc(NC(=O)c2c(O)[nH]c(=O)[nH]c2=O)c1 | / | 0.65 | i
COC(=O)C1=CO[C@@H](C)[C@@H]2CN(CCc3c[nH]c4ccccc34)CC[C@H]12 | / | 0.69 | i
CC(=Nc1ccc2c(c1)CCC2)c1c(O)n(C)c(=O)n(C)c1=O | / | 0.92 | i
O=C(Nc1ccccc1)c1c(O)[nH]c(=O)[nH]c1=O | / | 1.17 | i
CC[C@H]1CN(C)C[C@@]2(C(=O)OC)Cc3c([nH]c4ccccc34)C(=O)C[C@@H]12 | / | 0.97 | i

Record cards, from the list above.
CC(=Nc1ccc2c(c1)CCC2)c1c(O)n(C)c(=O)n(C)c1=O across the screens: RGS16-Gao HTS: /; HSV replic up primary fold: 0.92; HSV replic up: i
COC(=O)[C@@H]1C[C@]2(C(=O)O)c3ccccc3N(OOSc3ccccc3)[C@@H]2N1C(=O)OC across the screens: RGS16-Gao HTS: /; HSV replic up primary fold: 0.93; HSV replic up: i

Source: PubChem
